NS1 inh – influenza NS1 inhibition | S. cerevisiae slowed by influenza A NS1, growth recovery by OD600 | Potency, µM (doses to about 46.1 µM), for the others: at the top dose activity, positive = more growth | 270,000 compounds, 0.4% hits | AID 2326; also: actives are rising curves; nearly all actives have a fitted effect of over 50% in size
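Compounds were scored for reversing the slow growth caused by influenza A NS1 in S. cerevisiae, measured by optical density at 600 nm. Assay medium contained 2% galactose at pH 6.0; NS1-free yeast of the same strain were the positive control.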
2A StopGo – lowers the luciferase signal of an FMDV 2A StopGo reporter. human cells with a luciferase reporter of 2A StopGo recoding; control for the full effect not named in the record. Potency, µM (titrated, usually from 57.9 µM), for the others: at the top dose signal change, negative = less light. 410,000 compounds, 1.2% hits; active = well fitted falling curve with a large enough effect; inconclusive = small, poorly fitted or top-dose-only effect; inactive = no such curve, though single readings can be large or run the other way; tested in HEK293T cells; also: % is scaled to controls: 0 for no effect and ±100 for the full control effect; nearly all actives have a fitted effect of over 45% in size; luciferase light after 4 h
Cruzain inh Det – inhibitors of Trypanosoma cruzi cruzain with detergent. P25779. purified cruzain, Z-FR-AMC fluorescence, 0.01% Triton. Potency, µM, without a hit: max response, negative = inhibition, hits mostly inhibitors. 200,000 compounds, 0.43% hits; active = well fitted curve in the direction sought with a large enough effect; inconclusive = small, poorly fitted or top-dose-only effect, or another doubt; inactive = no such curve, though single readings can be large; an effect the other way counts as inactive or inconclusive;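 also: plate controls were neutral wells for no effect and buffer without enzyme for full effect; nearly all actives have a fitted effect of over 40% in size; top concentration of the series not given in the record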
Target sequence (P25779 123-467 limits assumed): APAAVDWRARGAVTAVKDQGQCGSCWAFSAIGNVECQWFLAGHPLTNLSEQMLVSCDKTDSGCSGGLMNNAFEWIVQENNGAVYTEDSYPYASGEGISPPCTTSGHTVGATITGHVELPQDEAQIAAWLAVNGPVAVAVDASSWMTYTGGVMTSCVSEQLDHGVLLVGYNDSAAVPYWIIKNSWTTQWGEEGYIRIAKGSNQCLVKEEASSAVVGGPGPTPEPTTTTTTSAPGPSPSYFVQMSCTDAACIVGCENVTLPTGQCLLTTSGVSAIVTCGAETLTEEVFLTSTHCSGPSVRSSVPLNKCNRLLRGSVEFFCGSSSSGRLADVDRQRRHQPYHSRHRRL
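Z-FR-AMC hydrolysis (2 uM substrate) by cruzain (1.5 nM) monitored kinetically at ex 360/em 450 nm after 15 min room-temperature compound exposure; 0.01% Triton X-100, pH 5.5, 5 mM DTT.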
RE007 growth inh – less growth of the S. pombe RE007 Vpr strain; S. pombe RE007 Vpr strain, BacTiter-Glo ATP luminescence, 24 h; control for the full effect not named in the record; Potency, µM (highest dose often 92.2 µM), inactives show at the top dose activity change, negative = less growth; 360,000 compounds, 0.21% hits; AID 651644; active = well fitted falling curve with a large enough effect; inconclusive = small, poorly fitted or top-dose-only effect; inactive = no such curve, though single readings can be large or run the other way;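 also: % is scaled to controls: 0 for no effect and ±100 for the full control effect; nearly all actives have a fitted effect of over 50% in size; the assay follows cell death caused by Vpr and the record does not say whether a fall means rescue or toxicity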
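Fission yeast RE007 carrying one integrated HIV-1 vpr copy, seeded at OD 0.01 in PMG+AL medium with 23 nL pinned compound. Grown 24 h at 30 degrees; viability read by BacTiter-Glo luminescence after 5 min.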
Cruzain noTriton – inhibitors of Trypanosoma cruzi cruzain without detergent | P25779 | purified cruzain, Z-FR-AMC fluorescence, no detergent | Potency, µM, for the others: max response, negative = inhibition, actives largely listed as inhibitors | 200,000 compounds, 2.3% hits | AID 1476; active = well fitted curve in the direction sought with a large enough effect; inconclusive = small, poorly fitted or top-dose-only effect, or another doubt; inactive = no such curve, though single readings can be large; an effect the other way counts as inactive or inconclusive;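 also: plate controls were enzyme without inhibitor for no effect and buffer without enzyme for full effect; nearly all actives have a fitted effect of over 40% in size; top concentration of the series not given in the record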
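Purified cruzain at 1.5 nM, pre-incubated 15 min with compound at room temperature in 100 mM sodium acetate pH 5.5, 5 mM DTT, 0.00005% Triton X-100. Reaction started with 2 uM Z-FR-AMC; AMC fluorescence increase over 60 s gives rate.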
Marburg entry inh – blocks Marburg virus binding to or entry into cells; Marburg virus pseudotyped entry inhibition, cell reporter; control for the full effect not named in the record; about a third of the inactives were read at about 46 µM; Potency, µM (top dose mostly 37.8 µM), inactives show top-dose activity change, negative = inhibition, actives largely listed as inhibitors; 300,000 compounds, 1.8% hits; AID 540276; active = well fitted inhibition curve with a large enough effect; inconclusive = small, poorly fitted or top-dose-only effect, or effect the other way; inactive = flat fitted curve, though single readings scatter; tested in HEK293 cells; about a fifth of its hits are not listed in these tables; also: % is scaled to controls: 0 for no effect and ±100 for the full control effect; luciferase read-out
Lassa entry inh – Lassa virus entry inhibition. Lassa virus pseudotype entry inhibition, cell reporter; control for the full effect not named in the record. Potency, µM (series often up to 37.9 µM), for inactives: at the highest dose activity change, negative = inhibition, actives largely listed as inhibitors. 300,000 compounds, 1.2% hits; active means well fitted inhibition curve with a large enough effect; inconclusive means small, poorly fitted or top-dose-only effect, or effect the other way; inactive means flat fitted curve, though single readings scatter; tested in HEK293 cells; also: % is scaled to controls: 0 for no effect and ±100 for the full control effect; nearly all actives have a fitted effect of over 50% in size; luciferase read-out
SARS PLP yeast – inhibitors of SARS-CoV papain-like protease in yeast | S. cerevisiae expressing SARS-CoV PLpro, growth rescue; control for the full effect not named in the record | Potency, µM (doses to about 32.9 µM), inactives show at the top dose activity, positive = growth rescue | 330,000 compounds, 0.19% hits | AID 485353; also: 0% is about no effect; nearly all actives have a fitted effect of over 55% in size; growth read by luminescence after 48 h
Starred values were filed as active, the others as inactive; & = joins results of further samples; [ ] = remark or other dose. Unless noted, calls follow the shape of the dose curve; as a rule, active means well fitted rising curve with a large enough effect; inconclusive means small, poorly fitted or top-dose-only effect; inactive means no such curve, though single readings can be large or run the other way. Potency is read from the fitted curve at half-maximal effect.

What do the screens show for `Cc1ccc(NC(=O)CN(C)C(=O)C(C)OC(=O)CNC(=O)c2ccc(Cl)c([N+](=O)[O-])c2)cc1` (stereo not drawn)?
2A StopGo: -24%; RE007 growth inh: 12%; Marburg entry inh: 0%[46.1 µM]; Lassa entry inh: 20%; SARS PLP yeast: -6%

How did COc1ccc(C(=O)COC(=O)C(C)N2C(=O)C3C4CCC(C4)C3C2=O)cc1 (stereo not drawn) do in these assays?
NS1 inh: -1%; 2A StopGo: 10%; RE007 growth inh: 7%; Marburg entry inh: 4%[46.1 µM]; Lassa entry inh: -4%; SARS PLP yeast: 2%

How did CC(=O)OCCCNc1cc(SCc2ccco2)c2nonc2c1[N+](=O)[O-] do in these assays?
NS1 inh: 0%; 2A StopGo: 35µM*; Cruzain inh Det: -21%; RE007 growth inh: -13%; Cruzain noTriton: -17%; Marburg entry inh: 13µM*; Lassa entry inh: inconclusive; SARS PLP yeast: 18%

Results for CCn1c(=N)n(CC(=O)c2ccc(OC)cc2)c2ccccc21 ?
NS1 inh: -1%; 2A StopGo: -5%; Cruzain inh Det: 4.9%; RE007 growth inh: 26%; Cruzain noTriton: 1%; Marburg entry inh: 10µM*; Lassa entry inh: inconclusive; SARS PLP yeast: -3%

Results for CC1(C(=O)N(CC(=O)NC2CCCC2)Cc2ccco2)CC(=O)N=C2C=CC=CN21 (stereo not drawn) ?
NS1 inh: -4%; 2A StopGo: -15%; Cruzain inh Det: -3.1%; RE007 growth inh: 5%; Cruzain noTriton: 7%; Marburg entry inh: -2%; Lassa entry inh: 2%; SARS PLP yeast: 5%

How did COc1cc2c(cc1OC)CN(Cc1cc(=O)oc3cc(C)c(Cl)cc13)CC2 do in these assays?
NS1 inh: -1%; 2A StopGo: 0%; Cruzain inh Det: -4.1%; RE007 growth inh: -6%; Cruzain noTriton: inconclusive; Marburg entry inh: inconclusive; Lassa entry inh: 0%; SARS PLP yeast: 6%

Results for O=C(O)CN(c1cccc(C(F)(F)F)c1)S(=O)(=O)c1ccccc1 ?
NS1 inh: 4%; 2A StopGo: 6%; RE007 growth inh: -9%; Marburg entry inh: 14%[46.1 µM]; Lassa entry inh: -1%; SARS PLP yeast: 0%

What do the screens show for `COc1ccc(NC(=O)NC(C)c2ccc3c(c2)OCO3)cc1OC` (stereo not drawn)?
NS1 inh: -10%; 2A StopGo: -22%; RE007 growth inh: 1%; Marburg entry inh: 1%; Lassa entry inh: inconclusive; SARS PLP yeast: 0%

How did COc1ccccc1CNC(=O)C1CCN(S(=O)(=O)c2ccc(N3CCCC3=O)cc2)CC1 do in these assays?
NS1 inh: -7%; 2A StopGo: -18%; RE007 growth inh: 9%; SARS PLP yeast: -1%

What do the screens show for `CCOc1ccccc1C(=O)NCCCn1ccnc1`?
NS1 inh: 3%; 2A StopGo: -9%; Cruzain inh Det: -4.0%; RE007 growth inh: -1%; Cruzain noTriton: 6%; Marburg entry inh: inconclusive; Lassa entry inh: -9%; SARS PLP yeast: 2%

Results for O=c1c2cnn(-c3ccc(F)cc3)c2ncn1Cc1ccccn1 ?
NS1 inh: -1%; Cruzain inh Det: 2.3%; Cruzain noTriton: 4%; SARS PLP yeast: 5%

How did CCOc1ccc(-c2nc(SC(C(C)=O)C(=O)N(C)C)c3c(=O)n(C)c(=O)n(C)c3n2)cc1 (stereo not drawn) do in these assays?
2A StopGo: -2%; Cruzain inh Det: 3.6%; Cruzain noTriton: -2%; Lassa entry inh: 25%[46.1 µM]

Results for Cc1ccc2cccc(NC(=O)COc3ccccc3[N+](=O)[O-])c2n1 ?
2A StopGo: -21%; Cruzain inh Det: -4.3%; Cruzain noTriton: 19%; Marburg entry inh: -22%[46.1 µM]; Lassa entry inh: -20%[46.1 µM]

How did COc1cccc(C(=O)N(Cc2cc3cc(C)ccc3[nH]c2=O)CC2CCCO2)c1 (stereo not drawn) do in these assays?
NS1 inh: 1%; 2A StopGo: 8%; Cruzain inh Det: 5.0%; RE007 growth inh: 10%; Cruzain noTriton: 11%; Marburg entry inh: -1%; Lassa entry inh: -7%; SARS PLP yeast: 0%

Results for COc1ccc(NC(=O)CN(C)C(=O)C23CC4CC(CC(C4)C2)C3)cc1 ?
NS1 inh: -31%; 2A StopGo: -26%; RE007 growth inh: 1%; Marburg entry inh: -3%; Lassa entry inh: -12%; SARS PLP yeast: -4%

What do the screens show for `CCOc1ccc(S(=O)(=O)N2CCCC(C(=O)Nc3cc(C)cc(C)c3)C2)cc1` (stereo not drawn)?
NS1 inh: -4%; 2A StopGo: -14%; RE007 growth inh: 7%; Marburg entry inh: 22%[46.1 µM]; SARS PLP yeast: 3%

Results for COCC(C)n1c(-c2ccc3c(c2)NC(=O)CO3)csc1=Nc1ccc(OC(F)F)cc1 (stereo not drawn) ?
NS1 inh: -1%; 2A StopGo: 20µM*; Cruzain inh Det: -8.8%; RE007 growth inh: 22%&11%; Cruzain noTriton: 9%; Marburg entry inh: inconclusive; Lassa entry inh: inconclusive; SARS PLP yeast: -1%

How did NNC(=O)c1ccc(-c2cccc([N+](=O)[O-])c2)o1 do in these assays?
2A StopGo: 10%; RE007 growth inh: 7%; Marburg entry inh: 11%[46.1 µM]; Lassa entry inh: 7%[46.1 µM]; SARS PLP yeast: -1%

How did Cn1cnnc1SCCOc1ccc(Cl)cc1 do in these assays?
NS1 inh: 3%; 2A StopGo: -5%; RE007 growth inh: 9%; Marburg entry inh: -11%[46.1 µM]; Lassa entry inh: inconclusive; SARS PLP yeast: 0%

Results for CCCNC(=O)c1ccc(CN2CCOCC2)cc1 ?
NS1 inh: -1%; 2A StopGo: 6%; RE007 growth inh: -3%; Marburg entry inh: -1%; Lassa entry inh: inconclusive; SARS PLP yeast: 1%

What do the screens show for `Cc1ccccc1C(=O)OCc1cc(=O)n2nc(C3CC3)sc2n1`?
2A StopGo: -8%; Cruzain inh Det: -2.0%; Cruzain noTriton: 7%; Lassa entry inh: 1%[46.1 µM]

Results for CC1=NOC(=O)/C1=C\c1ccc2c(c1)OCO2 ?
2A StopGo: inconclusive; RE007 growth inh: 2%; Marburg entry inh: 7%[46.1 µM]; Lassa entry inh: 22%[46.1 µM]; SARS PLP yeast: -2%

Results for Cc1noc(C)c1C(=O)Nc1ccc2ccccc2c1 ?
NS1 inh: -9%; 2A StopGo: 15%; RE007 growth inh: -10%; Marburg entry inh: 5%[46.1 µM]; Lassa entry inh: inconclusive; SARS PLP yeast: -7%

How did NC(=O)c1cc2ccccc2o/c1=N\NC(=O)c1ccc(F)cc1 do in these assays?
NS1 inh: 2%; 2A StopGo: 0%; RE007 growth inh: 3%; SARS PLP yeast: 1%

Results for NC(=NC(=O)c1ccccc1)N1N=CCC1c1ccccc1 (stereo not drawn) ?
NS1 inh: 4%; 2A StopGo: 8%; RE007 growth inh: -7%; Marburg entry inh: 7%; Lassa entry inh: 15%[46.1 µM]; SARS PLP yeast: 0%

Results for Cc1ccc(NC(=O)N2CCCC2C(=O)NCCC2=CCCCC2)cc1 (stereo not drawn) ?
NS1 inh: -6%; 2A StopGo: 8%; Cruzain inh Det: 7.1%; RE007 growth inh: 0%[3.69 µM]; Cruzain noTriton: -3%; Marburg entry inh: -10%; Lassa entry inh: -20%; SARS PLP yeast: 0%

Results for Cc1ccc(C(=O)OCC(=O)NC2CCCCC2)o1 ?
NS1 inh: -5%; 2A StopGo: 57%[activator]; RE007 growth inh: -1%; Marburg entry inh: 8%; Lassa entry inh: 16%; SARS PLP yeast: 0%

Results for Cc1ccc2c(c1)NC(=O)CC(c1ccccc1)=N2 ?
NS1 inh: -14%; 2A StopGo: 11%; Cruzain inh Det: -8.1%; RE007 growth inh: -7%; Cruzain noTriton: 2%; Marburg entry inh: -27%; Lassa entry inh: 24%; SARS PLP yeast: -21%

What do the screens show for `COc1ccc(Cn2c(C)nnc2-c2cnn(C)c2N)cc1OC`?
2A StopGo: -14%; RE007 growth inh: 13%; Marburg entry inh: 1%[46.1 µM]; Lassa entry inh: 6%[46.1 µM]; SARS PLP yeast: 1%

How did COc1ccccc1N1CCN(C/C(O)=C(\C#N)c2nc(-c3ccccc3)cs2)CC1 do in these assays?
NS1 inh: inconclusive; Cruzain inh Det: -5.0%; RE007 growth inh: 8%; Cruzain noTriton: 0%; Marburg entry inh: 16%; Lassa entry inh: -2%; SARS PLP yeast: 4%

How did N#CC(C#N)=Cc1cccnc1 do in these assays?
NS1 inh: 6%; 2A StopGo: -24%; RE007 growth inh: -6%; Marburg entry inh: 5%[46.1 µM]; Lassa entry inh: 12%; SARS PLP yeast: -1%

What do the screens show for `COc1cc(NS(=O)(=O)c2ccc(NC(=S)NC(=O)C(C)(C)C)cc2)nc(OC)n1`?
NS1 inh: -2%; 2A StopGo: 81%[activator]; Cruzain inh Det: 3.6%; RE007 growth inh: 1%; Cruzain noTriton: -12%; Marburg entry inh: 20%; Lassa entry inh: 0%; SARS PLP yeast: 2%

Results for Cc1cccc(C)c1NC(=O)CNC(=O)c1cn(-c2ccccc2)nc1-c1ccccc1 ?
NS1 inh: 6%; 2A StopGo: -1%; RE007 growth inh: -15%; Marburg entry inh: -6%; Lassa entry inh: 0%; SARS PLP yeast: -1%

What do the screens show for `CC(=O)N1CCN(c2ccc(NC(=O)COc3ccc(Cl)cc3Cl)cc2)CC1`?
NS1 inh: -3%; 2A StopGo: inconclusive; Cruzain inh Det: -0.7%; RE007 growth inh: 17%; Cruzain noTriton: inconclusive; Marburg entry inh: 13%; Lassa entry inh: -18%; SARS PLP yeast: -4%

Results for Cc1ccc(C(=O)N/C(=C\c2cccs2)C(=O)NCCCn2ccnc2)cc1C ?
NS1 inh: 5%; 2A StopGo: -8%; Cruzain inh Det: 4.7%; RE007 growth inh: 17%; Cruzain noTriton: -3%; Marburg entry inh: -6%; Lassa entry inh: 1%; SARS PLP yeast: -4%

How did CC(=O)C1=C(C)NC(SCC(=O)c2ccc(Cl)c(Cl)c2)=C(C#N)C1c1ccco1 (stereo not drawn) do in these assays?
NS1 inh: inconclusive; Cruzain inh Det: -20%; RE007 growth inh: -6%; Cruzain noTriton: inconclusive; Marburg entry inh: inconclusive; Lassa entry inh: -62%; SARS PLP yeast: 9%

What do the screens show for `Cc1cc(C(=O)NNC(=O)COc2c(C)cc(Br)cc2C)n[nH]1`?
NS1 inh: 14%; 2A StopGo: -2%; RE007 growth inh: 15%; SARS PLP yeast: 16%

From PubChem
